PD-1 reverse act: reversal of PD-1 mediated T-cell inhibition; primary human CD4 T cells, PD-L1 beads, CellTiter-Glo 96 h; activation, % (no concentration beside the values); 29,000 tested, under 10 active; AID 2316;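 active = replicate mean of 50% or more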;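 note: 0% = median vehicle wells and 100% = positive control; 100 nL library stock added to about 50 µL; numbers are from one replicate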
MITF inh: MITF inhibition; TRPM1 promoter luciferase, luminescence, 24 h; inhibition, % (test concentration not listed); hit rate 0.28% among 37,000; AID 2240;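 active = most replicates at 85% or more, or half of them and the mean; inconclusive = half reach 85% but not the mean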;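 note: human melanocyte line stably carrying TRPM1 promoter luciferase reporter; 0% = vehicle wells and 100% = a positive control; the first replicate is given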
Shh pathway inh: blocks Sonic Hedgehog signaling; hit rate 2.1% among 22,000; Shh-LIGHT2 Gli-luciferase reporter, 30 h; inhibition, % (test concentration not listed);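 active = replicate mean of 65% or more; inconclusive = mean lower but half the replicates past it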;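 note: pathway switched on by Shh-conditioned medium diluted 1 in 25 in low serum; 100 nL library stock added to about 40 µL; 0% = median of neutral wells and 100% = positive control level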
YB-1 expr inh: YB-1 expression inhibition | hit rate 0.37% among 30,000 | U2OS, qRT-PCR YB-1 vs CDIP delta delta Cp, 16 h; active compounds read high; zero = DMSO, each unit about twofold | delta delta Cp (YB-1 minus CDIP) (test concentration not listed);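 active = delta delta Cp rounded down to an integer at or above 3, about 3 SD of DMSO wells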;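 note: higher means less YB-1 transcript or more CDIP transcript relative to DMSO; stock transfer was 100 nL into about 100 µL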
The depositor's hits bear a star; ? = inconclusive; . = no result given.

SMILES | PD-1 reverse act | MITF inh | Shh pathway inh | YB-1 expr inh
C[C@@H]1CN([C@@H](C)CO)C(=O)c2cccc(NC(=O)C3CCOCC3)c2O[C@H]1CN(C)C(=O)NC1CCCCC1 | . | 12 | -3 | 0.49
C[C@H](CO)N1C[C@H](C)[C@H](CN(C)S(=O)(=O)c2cccs2)Oc2c(NS(=O)(=O)c3ccc(F)cc3)cccc2C1=O | 0.2 | 10 | -7 | -0.42
C[C@@H]1CN([C@H](C)CO)C(=O)c2cc(NC(=O)Cc3ccccc3)ccc2O[C@H]1CN(C)S(=O)(=O)c1cn(C)cn1 | -1.4 | 0 | -20 | -0.21
Cc1ccc(NC(=O)CCCn2cc([N+](=O)[O-])cn2)cc1C | 1.0 | -10 | . | .
C[C@@H]1CN([C@H](C)CO)C(=O)c2cc(NS(C)(=O)=O)ccc2O[C@@H]1CN(C)C(=O)Nc1ccc(F)cc1 | -1.0 | -9 | . | -0.42
C[C@H](CO)N1C[C@H](C)[C@H](CN(C)C(=O)NC2CCCCC2)Oc2c(NC(=O)Nc3ccccc3)cccc2C1=O | -3.1 | 7 | -42 | 0.25
COc1cc(C)c(Br)cc1S(=O)(=O)NCc1ccco1 | 0.8 | -39 | . | .
O=C(Nc1sc2c(c1C(=O)NCc1cccnc1)CCCC2)c1ccc(Cl)cc1 | 1.7 | -39 | . | .
COc1ccc(NC(=O)Nc2ccc3c(c2)C(=O)N([C@@H](C)CO)C[C@H](C)[C@H](CN(C)Cc2ccc(-c4ccccc4)cc2)O3)cc1 | 4.8 | 24 | . | 0.2
CC(C)c1ccc(NC(=O)CSc2nnc(-c3ccc(Cl)c(Cl)c3)n2C)cc1 | 2.5 | -10 | . | .
Cc1ccc(NC(=O)Cn2c([N+](=O)[O-])cnc2C)cc1C | -0.5 | -12 | . | .
O=C(CC(C(=O)O)N1CCOCC1)Nc1ccc(Cl)cc1 (stereo not drawn) | 1.6 | -3 | . | .
CC(=O)n1nc(-c2ccc(Cl)cc2)nc1NCc1ccco1 | -0.1 | -79 | . | .
Cc1ccc(S(=O)(=O)N(C)C[C@@H]2Oc3ccc(NC(=O)C4CC4)cc3C(=O)N([C@H](C)CO)C[C@H]2C)cc1 | -0.4 | -4 | . | -0.18
C[C@H](CO)N1C[C@H](C)[C@H](CN(C)C(=O)Nc2ccc(C(F)(F)F)cc2)Oc2ccc(NS(=O)(=O)c3cn(C)cn3)cc2CC1=O | 0.9 | -4 | -29 | 0.26
COc1ccc(S(=O)(=O)Nc2ccc3c(c2)CC(=O)N([C@@H](C)CO)C[C@H](C)[C@@H](CN(C)S(=O)(=O)c2ccc(Cl)cc2)O3)cc1 | 0.5 | 10 | 17 | 0.0037
CC(C)(C)c1ccc(NC(=O)CCSc2nnnn2-c2ccccc2)cc1 | -2.8 | -15 | . | .
C[C@H](CO)N1C[C@H](C)[C@H](CN(C)C(=O)Nc2ccc(F)cc2)Oc2ccc(NC(=O)Nc3cccc4ccccc34)cc2C1=O | -6.3 | 9 | 15 | 0.18
COc1ccc(NC(=O)CN(C)S(=O)(=O)c2cc(Cl)ccc2Cl)cc1Cl | 1.3 | -23 | . | .
CC(C)NC(=O)N(C)C[C@@H]1Oc2c(NC(=O)CCCCCC(=O)Nc3ccccc3N)cccc2C(=O)N([C@@H](C)CO)C[C@H]1C | 1.7 | -8 | . | -0.24
Cc1ccc(S(=O)(=O)Nc2cccc3c2O[C@H](CN(C)Cc2ccccc2)[C@H](C)CN([C@@H](C)CO)C3=O)cc1 | -0.3 | 1 | -14 | 0.65
COc1ccc(CCNc2nc(-c3cccc(NC(C)=O)c3)cs2)cc1OC | -3.3 | 16 | . | .
C[C@H](CO)N1C[C@H](C)[C@@H](CN(C)C(=O)NC2CCCCC2)Oc2c(NC(=O)CCCCCC(=O)Nc3ccccc3N)cccc2C1=O | 0.7 | -9 | . | -0.17
C[C@H](CO)N1C[C@H](C)[C@@H](CN(C)C(=O)NC2CCCCC2)Oc2c(NC(=O)C3CCOCC3)cccc2C1=O | 2.8 | -10 | -102 | 0.41
CCCCCC1OC2=C(C(=O)N(OC)C2CSCC(O)C(=O)O)C(O)C1(C)O (stereo not drawn) | -0.5 | 5 | 9 | 0.4

The results go on:
SMILES | PD-1 reverse act | MITF inh | Shh pathway inh | YB-1 expr inh
C[C@@H]1CN([C@@H](C)CO)C(=O)Cc2cc(NC(=O)Nc3ccc4c(c3)OCO4)ccc2O[C@@H]1CN(C)S(=O)(=O)c1ccccc1 | . | 17 | -15 | 0.012
N#Cc1c(NC(=O)CSc2nc(-c3ccccc3)cc(C(F)(F)F)n2)sc2c1CCCCC2 | -1.8 | 0 | . | .
Cc1noc(C)c1NC(=O)Nc1ccc2c(c1)C(=O)N([C@H](C)CO)C[C@H](C)[C@H](CN(C)CC1CCCCC1)O2 | 0.2 | 3 | . | 0.81
C[C@@H]1CCCCO[C@H](CN(C)Cc2ccncc2)[C@@H](C)CN([C@H](C)CO)C(=O)c2cc(NC(=O)c3ccccc3)ccc2O1 | . | -8 | -8 | -0.18
COc1ccc(CN(C)C[C@H]2Oc3ccc(NS(=O)(=O)c4cccs4)cc3CC(=O)N([C@@H](C)CO)C[C@H]2C)cc1 | . | 0 | -5 | 0.068
C[C@@H]1CN([C@H](C)CO)C(=O)c2cccc(NC(=O)c3cnccn3)c2O[C@@H]1CN(C)C(=O)NC1CCCCC1 | . | -10 | -1 | -0.081
C[C@@H]1CN([C@H](C)CO)C(=O)Cc2cc(NC(=O)Nc3cccc4ccccc34)ccc2O[C@@H]1CN(C)Cc1ccc(C(=O)O)cc1 | 0.4 | 1 | -10 | -0.53
CCn1c(SCC(=O)Nc2cc(C(F)(F)F)ccc2Cl)nnc1-c1cccnc1 | 1.5 | -10 | . | .
COc1ccc(S(=O)(=O)N(C)C[C@H]2Oc3c(NC(=O)NC4CCCCC4)cccc3C(=O)N([C@H](C)CO)C[C@@H]2C)cc1 | -1.4 | -2 | 24 | -0.43
C[C@@H]1CN([C@H](C)CO)C(=O)Cc2cc(NC(=O)C3CC3)ccc2O[C@@H]1CN(C)S(=O)(=O)c1cn(C)cn1 | 0.6 | -3 | . | 0.066
COc1ccc(S(=O)(=O)N(C)C[C@H]2Oc3c(NS(C)(=O)=O)cccc3C(=O)N([C@@H](C)CO)C[C@H]2C)cc1 | 0.7 | -13 | -7 | -0.65
C[C@@H]1CN([C@@H](C)CO)C(=O)c2cccc(NC(=O)c3nc4ccccc4s3)c2O[C@H]1CN(C)Cc1ccccc1 | . | 19 | -5 | 0.029
CCn1cc(C(C)NC(=S)Nc2ccc(OC)cc2OC)c(C)n1 (stereo not drawn) | 0.1 | -24 | . | .
COc1ccc(C(=O)CC(C#Cc2ccccc2)CC(=O)c2ccc(OC)cc2)cc1 | 0.4 | 0 | -23 | -0.69
Cc1ccc(NC(=O)CCn2nc(-c3ccccc3)c3ccccc3c2=O)cc1 | 3.2 | -2 | . | .
C[C@H]1CN([C@@H](C)CO)C(=O)Cc2cc(NC(=O)Cc3ccccc3)ccc2O[C@@H]1CN(C)C(=O)Nc1ccc(C(F)(F)F)cc1 | -0.6 | 1 | -40 | -0.022
CC(C)NC(=O)N(C)C[C@@H]1Oc2ccc(NC(=O)Nc3ccc4c(c3)OCO4)cc2C(=O)N([C@H](C)CO)C[C@@H]1C | -1.1 | -2 | . | 0.14
CC(C)=CCc1c(O)cc2occ(-c3ccc(O)cc3O)c(=O)c2c1O | . | . | -5 | -0.28
C[C@H](CO)N1C[C@H](C)[C@H](CN(C)C(=O)Nc2ccc(C(F)(F)F)cc2)Oc2c(NC(=O)c3nc4ccccc4s3)cccc2C1=O | -8.0 | -6 | ? | -0.18
c1ccc2oc(CCCc3nc4ccccc4o3)nc2c1 | -0.1 | -30 | -7 | 0.27
C[C@@H]1CN([C@H](C)CO)C(=O)Cc2cc(NS(=O)(=O)c3ccccc3)ccc2O[C@@H]1CN(C)C(=O)NC1CCCCC1 | 2.5 | -17 | -1 | 0.12
CC(C)NC(=O)N(C)C[C@H]1Oc2ccc(NC(=O)Nc3ccc(F)cc3)cc2C(=O)N([C@@H](C)CO)C[C@H]1C | 0.6 | 2 | 8 | -0.085
COc1ccc(CN(C)C[C@@H]2OCCCC[C@@H](C)Oc3ccc(NC(=O)c4ccncc4)cc3C(=O)N([C@H](C)CO)C[C@@H]2C)cc1 | . | -10 | 11 | -0.22
CCc1c(O)nc2ccccn2c1=O | 0.4 | -10 | -47 | 0.23
O=C1c2ccccc2C(=O)N1CCC12CC3CC(CC(C3)C1)C2 | 1.2 | 0 | . | 1

An excerpt from above in order of length of the SMILES, falling.
SMILES | PD-1 reverse act | MITF inh | Shh pathway inh | YB-1 expr inh
C[C@@H]1CN([C@@H](C)CO)C(=O)Cc2cc(NC(=O)Nc3ccc4c(c3)OCO4)ccc2O[C@@H]1CN(C)S(=O)(=O)c1ccccc1 | . | 17 | -15 | 0.012
C[C@H](CO)N1C[C@H](C)[C@H](CN(C)S(=O)(=O)c2cccs2)Oc2c(NS(=O)(=O)c3ccc(F)cc3)cccc2C1=O | 0.2 | 10 | -7 | -0.42
C[C@@H]1CN([C@H](C)CO)C(=O)c2cc(NC(=O)Cc3ccccc3)ccc2O[C@H]1CN(C)S(=O)(=O)c1cn(C)cn1 | -1.4 | 0 | -20 | -0.21
C[C@@H]1CN([C@H](C)CO)C(=O)c2cccc(NC(=O)c3cnccn3)c2O[C@@H]1CN(C)C(=O)NC1CCCCC1 | . | -10 | -1 | -0.081
N#Cc1c(NC(=O)CSc2nc(-c3ccccc3)cc(C(F)(F)F)n2)sc2c1CCCCC2 | -1.8 | 0 | . | .

Next part.
SMILES | PD-1 reverse act | MITF inh | Shh pathway inh | YB-1 expr inh
C[C@@H]1CCCCO[C@@H](CN(C)C(=O)Cc2ccccc2)[C@@H](C)CN([C@H](C)CO)C(=O)c2cc(NC(=O)C3CCCCC3)ccc2O1 | -0.3 | -4 | . | -0.1
O=C(Oc1ccc(Br)cc1)c1ccco1 | -0.3 | 17 | -8 | -0.18
COc1ccc(NC(=O)Nc2ccc3c(c2)CC(=O)N([C@@H](C)CO)C[C@@H](C)[C@@H](CN(C)CC2CCCCC2)O3)cc1 | 2.1 | -11 | 47 | -0.038
C[C@@H]1CCCCO[C@H](CN(C)S(=O)(=O)c2cccs2)[C@@H](C)CN([C@H](C)CO)C(=O)c2cc(NC(=O)Nc3ccc(F)cc3)ccc2O1 | . | 20 | . | 0.13
CNC[C@H]1Oc2ccc(NC(=O)Nc3ccc(F)cc3)cc2CC(=O)N([C@@H](C)CO)C[C@H]1C | 1.2 | 0 | 10 | 0.37
CC(C)NC(=O)N(C)C[C@H]1Oc2ccc(NC(=O)c3ccncc3)cc2C(=O)N([C@H](C)CO)C[C@@H]1C | 1.5 | 2 | -9 | 0.22
c1ccc(C2C3=C(Nc4ncnn42)c2ccccc2CCC3)cc1 (stereo not drawn) | -0.6 | -27 | 30 | -0.15
Cc1ccc(C2C(C(=O)c3sc(-c4ccccc4)nc3C)C(=O)C(=O)N2CCN(C)C)o1 (stereo not drawn) | 0.5 | -7 | . | .
Cc1cc(C)c(Cn2c(CCCO)nc3ccccc32)c(C)c1 | -3.7 | 12 | . | .
C[C@H]1CN([C@@H](C)CO)C(=O)Cc2cc(NC(=O)Nc3ccc(C(F)(F)F)cc3)ccc2O[C@H]1CN(C)Cc1ccc(C(F)(F)F)cc1 | -10 | 34 | -31 | 0.24
Cc1noc(C)c1S(=O)(=O)N(C)C[C@H]1Oc2c(NS(C)(=O)=O)cccc2C(=O)N([C@@H](C)CO)C[C@H]1C | 1.3 | 5 | -20 | 0.84
C[C@@H]1CN([C@@H](C)CO)C(=O)Cc2cc(NC(=O)Cc3cn(C)c4ccccc34)ccc2O[C@@H]1CN(C)C(=O)Nc1ccc2c(c1)OCO2 | -1.5 | 1 | -14 | 0.073
C(=N\C(/N=C/c1ccccc1)c1ccccc1)/c1ccccc1 | 2.0 | 3 | -24 | -0.14
C[C@@H]1CN([C@@H](C)CO)C(=O)c2cc(NC(=O)CCCCCC(=O)Nc3ccccc3N)ccc2O[C@H]1CN(C)S(=O)(=O)c1ccc(Cl)cc1 | -1.1 | 6 | . | -0.55
O=C(O)c1cccc(NCc2cccnc2)c1 | -0.2 | -16 | . | .
Cc1noc(C)c1NC(=O)N(C)C[C@H]1Oc2c(NS(C)(=O)=O)cccc2C(=O)N([C@H](C)CO)C[C@@H]1C | -0.9 | -5 | 16 | 0.36
C[C@@H]1CN([C@@H](C)CO)C(=O)Cc2cc(NC(=O)Nc3ccc4c(c3)OCO4)ccc2O[C@@H]1CN(C)CC1CC1 | -1.0 | -3 | . | -1
COc1ccc(Cl)cc1Nc1nc(N)nc(-c2oc3ccccc3c2C)n1 | 0.0 | -6 | . | .
CC(C)NC(=O)Nc1ccc2c(c1)C(=O)N([C@@H](C)CO)C[C@@H](C)[C@@H](CN(C)C(=O)Nc1ccccc1)O2 | 0.4 | -19 | -10 | -0.35
C[C@H](CO)N1C[C@H](C)[C@@H](CN(C)C(=O)Nc2cccc3ccccc23)Oc2ccc(NC(=O)CCN3CCOCC3)cc2C1=O | 0.1 | -8 | . | -0.15
O=C1C(=O)N(CCn2c3ccccc3c3nc4ccccc4nc32)c2ccccc21 | -15 | -6 | . | .
COC(=O)c1cc(-c2ccccc2)sc1NC(=S)Nc1ccn(C)n1 | -8.3 | -64 | . | .

Source: PubChem BioAssay (Broad Institute)

The list is partial (hit frequency here may not be typical).
